Screens deposited in PubChem BioAssay by ICCB-Longwood Screening Facility, Harvard Medical School.
Ecoli growth: E. coli growth inhibition, primary screen, OD600 | AID 1053175, 2014 | OD600 absorbance (concentration not given with the values) | 330,000 compounds, 0.21% hits | Escherichia coli growth, 23 h; hits give low values;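 active means OD600 absorbance below the run mean of sample wells minus 3.6 SD, in any replicate, cut at about 0.56 in these data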;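 further: stock transfer was 300 nL into about 60 µL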
UCH37 DUB inh: inhibitors of human UCH37 deubiquitinase, primary screen, biochemical, Ub-AMC cleavage, fluorescence; Ubiquitin carboxyl-terminal hydrolase isozyme L5 (Homo sapiens), Q9Y5K5; purified proteasome/UCH37; inhibition, % (no concentration beside the values); 330,000 compounds, 0.33% hits; AID 588478, 2011;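 active means mean of two replicates above 20%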;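 further: 0% = compound-free wells with enzyme and 100% = wells lacking proteasome; stock transfer was 100 nL into about 20 µL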
Target sequence (Q9Y5K5 whole entry, looked up): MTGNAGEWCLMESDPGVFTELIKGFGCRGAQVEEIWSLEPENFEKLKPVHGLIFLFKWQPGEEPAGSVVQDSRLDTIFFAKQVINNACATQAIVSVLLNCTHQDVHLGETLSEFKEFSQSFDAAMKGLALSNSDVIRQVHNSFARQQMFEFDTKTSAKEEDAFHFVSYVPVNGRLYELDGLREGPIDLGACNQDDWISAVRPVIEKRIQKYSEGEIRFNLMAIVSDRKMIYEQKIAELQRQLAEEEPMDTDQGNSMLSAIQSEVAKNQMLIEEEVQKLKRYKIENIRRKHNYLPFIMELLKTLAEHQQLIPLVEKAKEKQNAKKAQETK
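System: Proteasome-associated human UCH37 deubiquitinase; Input: 0.15 nM proteasome in added enzyme buffer; Also added: Ub-AMC substrate from 1 µM stock; Incubation: 30 min compound-proteasome preincubation then 25 min substrate reaction, room temperature; Detection: fluorescence, ex 355 nm, em 460 nm; Read-out: % inhibition of Ub-AMC cleavage fluorescence; Benchmarks: no-proteasome and no-compound wells.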
The depositor's hits bear a star.

SMILES	Ecoli growth	UCH37 DUB inh
CC(=NNC(=O)c1nn(C)c(C)c1Br)c1ccc(NC(=O)C2CCCC2)cc1	0.75	-25
CCc1ccc(S(=O)(=O)NN=Cc2cn(CC(N)=O)c3ccccc23)cc1	0.71	3.6
Cc1cc(C=NNc2nc(N)ncc2[N+](=O)[O-])c(C)n1-c1cccc(C(F)(F)F)c1	0.67	6.0
Cc1occc1C(=O)NN=Cc1sc(N2CCOCC2)nc1-c1ccccc1	0.69	-111
COc1ccc(C(=O)Nc2ccccc2C(=O)NN=Cc2ccccc2OC)cc1	0.69	1.5
ON=Cc1ccccc1Oc1ccc(Cl)cc1	0.65	1.0
Cc1cccc(C)c1-n1c(C)cc(C=NNC(=O)CSc2ncccn2)c1C	0.7	2.1
CC(Cn1cnc([N+](=O)[O-])n1)=NNC(=O)c1cccnc1	0.73	1.4
COc1ccc([N+](=O)[O-])cc1C=NNC(=O)/C(=C\c1cccs1)NC(=O)c1ccccc1	0.7	11
CCOC=Nc1c(C#N)c(CC#N)nn1-c1ccccc1	0.72	-0.6
COc1ccc(O)c(C=c2sc3nc4cc(C)c(C)cc4n3c2=O)c1	0.64	1.3
O=C(CNC(=O)c1ccco1)NN=Cc1ccc(C(=O)O)cc1	0.67	1.7
COC(=O)c1ccc(COc2ccccc2C=NNS(=O)(=O)c2ccc(C)cc2)cc1	0.73	5.6
CC(=NNc1nncc2ccccc12)c1ccc(OCC(=O)N(C)C)cc1	0.72	11
Cn1c(=O)c2c(ncn2CC(=O)NN=C/C(Br)=C/c2ccccc2)n(C)c1=O	0.61	5.1
O=C(CNc1n[nH]c(=O)[nH]c1=O)NN=C/C=C/c1ccccc1	0.68	5.4
CCC(=NNC(=O)c1cc(C)nc2ccccc12)c1ccc(C)s1	0.65	-2.2
CCOC(=O)C(C)=NNC(=O)c1cccc([N+](=O)[O-])c1	0.73	0.4
O=C(NN=Cc1ccc(N2CCOCC2)cc1)c1cccs1	0.69	-5.5
COc1ccc(NN=C(C=NO)C(=O)c2ccc(OC)cc2)cc1	0.74	6.0
CN(C)c1ccc(C=NNC(=O)c2ccccn2)cc1	0.67	17
O=C(NN=Cc1ccccc1Br)C1CC1	0.69	0.7
CCN(CC)S(=O)(=O)c1cccc(C(=O)NN=Cc2cc(OC)c(O)c(OC)c2)c1	0.69	7.5
COc1ccc(Cc2nnc(NN=Cc3ccc(Br)cc3)[nH]c2=O)cc1OC	0.71	4.1
Cc1cc(C)nc(N=C(NC(=O)Nc2ccc(Cl)c(Cl)c2)Nc2cccc(Cl)c2)n1	0.65	0.6
CC(=NNC(N)=O)C1CC(Cc2ccccc2)C(=O)O1 (centres undefined)	0.67	-0.4
CC(=NO)C1C(=NO)CC2C1C2(C)C (centres undefined)	0.71	2.0
O=C(NN=Cc1cn(-c2ccccc2)nc1-c1cccs1)c1ccccc1F	0.68	-1.4
COc1cccc(C=NNC(=O)C(=O)NCc2ccco2)c1OC	0.69	3.2
CCCCC1S/C(=N/N=Cc2cccs2)NC1=O (centres undefined)	0.69	8.5
CON=CCC(=O)Nc1ccc(F)cc1F	0.64	2.4
CN(C)C=NC(=S)Nc1ccc(F)cc1	0.72	5.1
O=C(NN=CC1CCCCC1)c1cc(Cl)ccc1O	0.68	-126
CN(C)c1ccc(C(=NO)C(F)(F)F)cc1	0.65	1.3
Cn1ccnc1Sc1ccc(C=NNC(=O)c2ccccc2O)cc1[N+](=O)[O-]	0.71	2.0
CC1(C)NC(C)(C)c2nonc2C1=NO	0.71	0.9
COc1ccc(C=NN=C2CC(C)(C)Cc3n[nH]c(=O)cc32)cc1	0.75	4.3
CC(=NNS(=O)(=O)c1ccc(Cl)c([N+](=O)[O-])c1)c1ccc(C)o1	0.72	8.1
NS(=O)(=O)c1ccc(-c2ccc(C=NNc3ccc(C(=O)O)cc3)o2)cc1	0.71	-6.7
Cc1oc(N=Cc2ccccc2O)c(C#N)c1C	0.75	4.9
Cc1ccc2nc(C)c(C(=O)NN=Cc3ccccc3[N+](=O)[O-])cc2c1	0.66	4.3
COC(=O)C(=O)/C=C(/O)c1ccc(C)cc1	0.69	14
Fc1ccc(C=NNc2nc(-c3cccnc3)nc3ccccc23)cc1	0.71	-0.2
Cc1nc2ccccc2n1CC(=O)NN=Cc1ccccn1	0.67	-1.9
CC1(C)CC(=O)CC(=NNc2nc3ccccc3s2)C1	0.67	4.8
Oc1ccc(C=NNc2nccnc2Cl)cc1	0.71	12
Cc1ccc(S(=O)(=O)Oc2ccc(C=N/N=C3/NC(=O)C(CC(=O)O)S3)cc2)cc1 (centres undefined)	0.65	16
O=[N+]([O-])c1cccc(-c2ccc(C=Nn3c(-c4ccccc4)n[nH]c3=S)o2)c1	0.72	9.9
COc1ccccc1NS(=O)(=O)c1cccc(C(=O)NN=Cc2cn(-c3ccccc3)nc2-c2ccccc2)c1	0.71	-16
CCOc1ccc(C=Nn2c(COc3ccccc3)n[nH]c2=S)cc1OC	0.68	5.7
Cc1ccc2c(nc3sc(=Cc4cccs4)c(=O)n32)c1C	0.77	-3.5
O=C(ON=C(c1ccccc1)c1ccccn1)c1ccc(Cl)c(Cl)c1	0.7	1.6
COc1ccccc1C=NNC(=O)CO	0.67	0.3
C=CCN1C(=O)CSC1=NS(=O)(=O)c1ccc(Cl)cc1	0.65	3.8
Cc1onc(-c2ccccc2)c1C(=O)NN=Cc1cc(Br)c(Br)o1	0.67	0.7
C(=Nn1cnnc1)c1cn(-c2cccs2)nc1-c1ccccc1	0.7	-33
COc1ccc2c(c1)-c1nc(N=Cc3c(O)ccc4ccccc34)sc1CC2	0.67	11
CC(/C=C/c1ccco1)=NNC(=O)OC(C)(C)C	0.72	6.0
COc1cc([N+](=O)[O-])cc(C=NNC(=O)c2cncc(Br)c2)c1O	0.69	16
Cc1cc(C(=O)NN=Cc2ccc[nH]2)no1	0.63	15

More compounds.
SMILES	Ecoli growth	UCH37 DUB inh
CCOc1ccc(C=NNC(=O)CN2CCCCC2)cc1OCC	0.69	4.2
CC(=NO)C(=O)NCc1ccncc1	0.76	4.1
CCC1CCCC1=NNC(=O)c1ccoc1C (centres undefined)	0.73	3.0
O=C(NCCCNCCCNC(=O)c1ccc(C=NO)nc1)c1ccc(C=NO)nc1	0.62	2.8
CC(=NN(c1ccccc1)c1ccccc1)c1ccc(N)cc1	0.68	3.4
CN(C)N=Cc1ccc(OC(=O)c2cccc([N+](=O)[O-])c2)cc1	0.73	0.8
COCCNC(=O)C(=O)NN=Cc1ccccc1C(F)(F)F	0.76	4.0
CN(C)c1ccc(C=Nn2cnn(Cc3ccccc3Cl)c2=S)cc1	0.72	-9.7
Cc1ccc(C(C)C)c(OCC(=O)NN=Cc2cccn2C)c1	0.68	4.5
COc1cccc(C=Nn2c(-c3n[nH]c4c3CCC4)n[nH]c2=S)c1OC	0.67	4.2
Cc1ccc(C=NNC(=S)NC(C)C)o1	0.69	4.6
Cc1cccc(C=Nn2c(COc3ccccc3)n[nH]c2=S)c1	0.68	2.3
O=C(NN=C/C(Br)=C\c1ccccc1)c1ccc2nc[nH]c2c1	0.65	9.2
Cc1nn(-c2ccccc2)c(N2CCCC2)c1C=NNc1ccc(S(N)(=O)=O)cc1[N+](=O)[O-]	0.75	6.9
COc1ccccc1/C=C/C=NN1CCN(c2ccccn2)CC1	0.73	3.0
COc1ccccc1/C=C/C=NNC(=O)c1cc(-c2ccco2)[nH]n1	0.68	-1.3
CC(CC(=O)Nc1ccccn1)=NNC(=O)c1ccc(C)cc1	0.69	1.1
O=c1[nH][nH]c(C(F)(F)F)c1C=NN1CCOCC1	0.72	4.5
COc1cccc(C(=NO)C2CC2c2ccc(Cl)cc2)c1 (centres undefined)	0.65	3.9
COc1ccc(C=N/N=C2/NC(=O)C(CC(=O)O)S2)cc1OCc1ccccc1Cl (centres undefined)	0.68	16

Among those listed so far, 18 contain an aryl methoxy group:
SMILES	Ecoli growth	UCH37 DUB inh
COc1ccc(C(=O)Nc2ccccc2C(=O)NN=Cc2ccccc2OC)cc1	0.69	1.5
COc1ccc([N+](=O)[O-])cc1C=NNC(=O)/C(=C\c1cccs1)NC(=O)c1ccccc1	0.7	11
COc1ccc(O)c(C=c2sc3nc4cc(C)c(C)cc4n3c2=O)c1	0.64	1.3
COc1ccc(NN=C(C=NO)C(=O)c2ccc(OC)cc2)cc1	0.74	6.0
CCN(CC)S(=O)(=O)c1cccc(C(=O)NN=Cc2cc(OC)c(O)c(OC)c2)c1	0.69	7.5
COc1ccc(Cc2nnc(NN=Cc3ccc(Br)cc3)[nH]c2=O)cc1OC	0.71	4.1
COc1cccc(C=NNC(=O)C(=O)NCc2ccco2)c1OC	0.69	3.2
COc1ccc(C=NN=C2CC(C)(C)Cc3n[nH]c(=O)cc32)cc1	0.75	4.3
COc1ccccc1NS(=O)(=O)c1cccc(C(=O)NN=Cc2cn(-c3ccccc3)nc2-c2ccccc2)c1	0.71	-16
CCOc1ccc(C=Nn2c(COc3ccccc3)n[nH]c2=S)cc1OC	0.68	5.7
COc1ccccc1C=NNC(=O)CO	0.67	0.3
COc1ccc2c(c1)-c1nc(N=Cc3c(O)ccc4ccccc34)sc1CC2	0.67	11
COc1cc([N+](=O)[O-])cc(C=NNC(=O)c2cncc(Br)c2)c1O	0.69	16
COc1cccc(C=Nn2c(-c3n[nH]c4c3CCC4)n[nH]c2=S)c1OC	0.67	4.2
COc1ccccc1/C=C/C=NN1CCN(c2ccccn2)CC1	0.73	3.0
COc1ccccc1/C=C/C=NNC(=O)c1cc(-c2ccco2)[nH]n1	0.68	-1.3
COc1cccc(C(=NO)C2CC2c2ccc(Cl)cc2)c1 (centres undefined)	0.65	3.9
COc1ccc(C=N/N=C2/NC(=O)C(CC(=O)O)S2)cc1OCc1ccccc1Cl (centres undefined)	0.68	16

Next section.
SMILES	Ecoli growth	UCH37 DUB inh
CSc1ccc(C=Nn2c(Cc3ccc(Br)cc3)n[nH]c2=S)cc1	0.67	3.5
Cc1cc(C)c(OCC(=O)NN=Cc2ccco2)c(C)c1	0.68	-0.8
Cc1ccc(-c2nnc(SCC(=O)NN=Cc3cccs3)n2-c2ccc(C)cc2)cc1	0.74	4.1
O=C(CON=Cc1ccccc1OC(F)F)N1CCc2ccccc21	0.73	1.0
COc1ccc2c(C=NNS(=O)(=O)c3ccc(C)cc3)c[nH]c2c1	0.66	0.3
O=C(COc1ccc([N+](=O)[O-])cc1)NN=Cc1ccccn1	0.71	3.3
COCCCn1c(=C(C#N)C(=O)NCCOC)sc(=Cc2ccc(OC(F)F)c(OC)c2)c1=O	0.74	-69
Cc1nc(Cl)cc(NN=Cc2ccccc2)n1	0.68	2.8
O=C(CSc1nc2ccccc2c(=O)n1-c1ccc(Cl)cc1)NN=C/C=C/c1ccccc1[N+](=O)[O-]	0.67	7.2
Cc1ccccc1C(=O)NN=Cc1ccncc1	0.68	4.2
CCOc1ccc(Cl)cc1C=NNC(=O)c1ccccc1	0.63	-1.7
COc1ccc(C=NN(C(C)=O)c2nc(-c3ccc(C)cc3)cs2)cc1	0.78	0.8
O=C(NN=Cc1sc(N2CCOCC2)nc1-c1ccccc1)c1ccc(O)cc1	0.67	-27
Cc1ccc(C=NNC(=O)c2cccs2)o1	0.7	12
COc1cc(C=NNC(=O)c2cc(C)oc2C)ccc1O	0.68	3.3
COc1ccc(C=NNc2cc(C)nc(-n3nc(C)cc3C)n2)cc1	0.68	5.5
CC(CC1CC(COCC(C)C)OC1=O)=NNc1nc(-c2ccccc2)cs1 (centres undefined)	0.7	2.6
O=C(NCC1COc2ccccc2O1)c1c[nH]c2ccc(S(=O)(=O)N3CCOCC3)cc2c1=O (centres undefined)	0.77	-3.1
CCCCCCCCC(=O)NN=C(C)c1cccnc1	0.74	1.8
COc1ccc(/C=C/C(=O)NCC(=O)NN=Cc2cccs2)cc1	0.71	2.7
CC(=NNC(=O)c1ccc(Cn2cccn2)o1)c1cccc(NC(=O)c2ccncc2)c1	0.64	1.2
COC(=O)NN=Cc1cc(Cl)cc(Cl)c1OCc1ccccc1F	0.74	5.6
CC(C=NNC(=O)c1ccc2c(c1)OCO2)c1ccccc1 (centres undefined)	0.69	-0.4
Cc1cc(C=NNC(=O)C(O)(c2ccccc2)c2ccccc2)c(C)n1-c1ccc(C(=O)O)cc1	0.7	-3.0
COc1ccccc1NN=C1COC(C)(C)CC1=O	0.7	8.4
Cc1ccc(SCc2cc(=O)[nH]c(N=C(N)Nc3ccccc3Sc3ccccc3)n2)cc1	0.75	3.4
C/C(C=NNC(=O)Cn1nccc1C)=C\c1ccc(C(C)C)cc1	0.67	4.3
Cc1nn(-c2ccccc2)c(N2CCCC2)c1C=NNC(=S)Nc1ccc(F)cc1	0.69	-0.1
COc1ccc(N(CC(=O)NN=Cc2ccc(OC)cc2OC)S(=O)(=O)c2ccccc2)cc1	0.67	2.4
Cc1cccc(NC(=O)CCC(=O)NN=Cc2ccc(O)cc2O)c1	0.62	-11
CCOC(=O)c1cc(C(C)=NOC(=O)c2ccc(Cl)cc2)on1	0.68	4.2
O=S1(=O)N=C(NN=Cc2ccc(Br)o2)c2ccccc21	0.67	5.0

This is a subset, so the mix of outcomes need not match the whole.
